Sfp PPTase inh – qHTS Assay for Inhibitors of Bacillus subtilis Sfp phosphopantetheinyl transferase (PPTase). 4'-phosphopantetheinyl transferase ffp (Bacillus subtilis), Q9F4F7. Biochemical Sfp PPTase activity, qHTS. Potency, µM, for inactives: max response, negative = inhibition, usual class: inhibitors. 3.5% of 310,000 active. AID 1490, 2009; active means well fitted inhibition curve with a large enough effect; inconclusive means small, poorly fitted or top-dose-only effect, or another doubt; inactive means no such curve, though single readings can be large or run the other way;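 further: the enzyme is Sfp with the accession as filed and its product quenches rhodamine fluorescence; potency means the concentration at half of the fitted maximal effect; 0% = enzyme reaction without inhibitor and -100% = no enzyme wells; top concentration of the series not given in the record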
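With Hepes-Na pH 7.6 buffer containing 10 mM MgCl2, Sfp (15 nM) modified BHQ-2-YbbR (12.5 uM) using rhodamine-CoA (5 uM). Two reads 30 minutes apart at 525/598 nm yielded each well's rate.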
gsp antag – qHTS for Antagonists of gsp, the Etiologic Mutation Responsible for Fibrous Dysplasia/McCune-Albright Syndrome: qHTS. AID 624288, 2012. 0.4% of 340,000 active. gsp-mutant cells, cAMP HTRF, 30 min; control for the full effect not named in the record. Potency, µM (highest dose often 76.9 µM), without a hit: at the highest dose activity change, negative = inhibition, actives largely listed as inhibitors; active = falling curve of any shape with a large fitted effect; inconclusive = falling curve, mostly with a smaller effect; inactive = flat or rising curve; cell line not stated here;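 further: intracellular cAMP measured with PDE inhibitor Ro 20-1724 present during compound exposure; potency means the concentration at half of the fitted maximal effect; on the % scale 0 is the no-effect control and ±100 the full control effect; nearly all actives have a fitted effect of over 65% in size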
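HTRF cAMP read-out (cAMP-d2 plus anti-cAMP antibody-K in lysis buffer, 30 min RT). Before lysis, cells are exposed to compounds with […] for 30 min at 37C in DPBS containing Ca/Mg, BSA and Tween 20.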
gsp ag – qHTS for Agonist of gsp, the Etiologic Mutation Responsible for Fibrous Dysplasia/McCune-Albright Syndrome: qHTS | gsp mutant cells, cAMP HTRF, 30 min; control for the full effect not named in the record | Potency, µM (series often up to 76.9 µM), without a hit: top-dose activation (cAMP increase), actives largely listed as activators | 0.13% of 340,000 active | AID 624287, 2012; active = well fitted activation curve with a large enough effect; inconclusive = small, poorly fitted or top-dose-only effect, or another doubt; inactive = no such curve, though single readings can be large or run the other way; cell line not stated here;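 further: phosphodiesterase inhibitor Ro 20-1724 added with compounds to block cAMP breakdown; potency means the concentration at half of the fitted maximal effect; nearly all actives have a fitted effect of over 60% in size; about a fifth of the inactives were tested at one dose only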
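Cells stably selected in G418 were plated at 2000/well, grown 16-24 hr, then given compounds in DMSO with the PDE inhibitor […] (300 uM solution added) for 30 min at 37C; cAMP was read by HTRF.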
ClpP mod – qHTS Assay for Activators of ClpP; Potency, µM (doses to about 57.5 µM), for inactives: at the highest dose activity change, negative = active; ATP-dependent Clp protease proteolytic subunit (Bacillus subtilis (strain 168)), P80244; AID 651965, 2013; purified B. subtilis ClpP, FRET peptide cleavage, 20 min; 1.9% of 340,000 active; active = well fitted falling curve with a large enough effect; inconclusive = small, poorly fitted or top-dose-only effect; inactive = no such curve, though single readings can be large or run the other way; further: potency means the concentration at half of the fitted maximal effect; the source files actives as falling curves though it sought activators and does not explain the sign; nearly all actives have a fitted effect of over 65% in size; many hits overshoot -100%
Target sequence (P80244 whole entry, looked up): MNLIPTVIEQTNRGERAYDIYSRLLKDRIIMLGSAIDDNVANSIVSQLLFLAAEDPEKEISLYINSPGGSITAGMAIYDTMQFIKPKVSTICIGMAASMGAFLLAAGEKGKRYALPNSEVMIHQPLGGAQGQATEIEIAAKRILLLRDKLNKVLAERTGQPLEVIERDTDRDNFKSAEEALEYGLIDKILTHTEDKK
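Purified B. subtilis ClpP, 10 microg/mL final in Tris/HCl pH8 with KCl, BSA, glycerol and Tween-20, cleaved an Abz/nitrotyrosine-quenched decapeptide. Fluorescence (ex 320, em 430) was read at 0 and 20 min at room temperature. Delta was normalized to 5.8 microM ADEP and DMSO/no-enzyme controls.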
CtBP-E1A blk – qHTS Assay for Inhibitors of the CtBP/E1A Interaction. CtBP / adenovirus E1A interaction (AlphaScreen). AlphaScreen GST-E1A/His-CtBP binding, 1536-well; hits give low values; control for the full effect not named in the record. activity change, % (concentration not given with the values). 0.49% of 340,000 active. AID 651724, 2012; in the data active means activity change below about -65%; inconclusive means about -30% to -65%; inactive means above about -30%; further: on the % scale 0 is the no-effect control and ±100 the full control effect
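In 5 uL wells, 23 nL compound meets equimolar GST-E1A and His-CtBP (5X stock 125 nM each) for 2 h, 37 °C. Beads (5X, 50 ug/mL) then 1 h, 37 °C, dark.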
TRPV1 PAM – HTS Assay for Compounds that Act as Potentiators of the Vanilloid Receptor 1; AID 540277, 2011; 0.02% of 320,000 active; potentiation, % at 8.33 µM; TRPV1-expressing cells, Fluo-8 calcium influx, capsaicin EC20 potentiation; host cell line not named in the record; control for the full effect not named in the record; active means potentiation above 80%; inconclusive means 30% to 80%; inactive means below 30%; further: 0% is about no effect
Target sequence (Q8NER1 whole entry, looked up): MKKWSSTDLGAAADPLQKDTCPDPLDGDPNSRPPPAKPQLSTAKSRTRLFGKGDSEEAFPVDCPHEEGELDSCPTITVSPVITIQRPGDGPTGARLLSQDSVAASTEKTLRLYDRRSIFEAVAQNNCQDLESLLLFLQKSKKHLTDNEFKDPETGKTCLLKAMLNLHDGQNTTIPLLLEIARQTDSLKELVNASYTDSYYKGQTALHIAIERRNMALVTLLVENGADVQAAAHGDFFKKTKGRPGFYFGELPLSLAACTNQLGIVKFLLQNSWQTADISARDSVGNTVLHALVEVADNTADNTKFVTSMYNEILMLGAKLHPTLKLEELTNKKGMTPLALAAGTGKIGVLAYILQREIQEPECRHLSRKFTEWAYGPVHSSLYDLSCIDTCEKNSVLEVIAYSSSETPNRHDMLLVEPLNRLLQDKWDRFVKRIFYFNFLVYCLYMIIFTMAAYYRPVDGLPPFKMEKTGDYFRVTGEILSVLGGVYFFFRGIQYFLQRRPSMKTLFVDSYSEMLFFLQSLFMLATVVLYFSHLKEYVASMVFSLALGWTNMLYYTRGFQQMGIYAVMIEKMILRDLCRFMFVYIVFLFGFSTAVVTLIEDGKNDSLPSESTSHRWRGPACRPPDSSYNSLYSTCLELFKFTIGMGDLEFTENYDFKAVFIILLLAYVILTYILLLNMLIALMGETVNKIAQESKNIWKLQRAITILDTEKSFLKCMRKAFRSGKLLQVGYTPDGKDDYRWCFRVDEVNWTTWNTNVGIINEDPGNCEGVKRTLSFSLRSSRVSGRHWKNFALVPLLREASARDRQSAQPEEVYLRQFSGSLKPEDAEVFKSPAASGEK
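Fluo-8 calcium influx in TRPV1-expressing cells, kinetic read (ex 480/em 520 nm). Compound added and read 3 min for agonist activity, followed by capsaicin at EC20 final and 2 min further read for enhancement.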
Menin-MLL FL inh – qHTS Assay for Inhibitors Targeting the Menin-MLL Interaction in MLL Related Leukemias: Competition With Fluorescein Labeled MLL-derived Peptide; Fluorescence polarization, fluorescein-MLL peptide displacement from menin; 290,000 tested, under 10 active; AID 1766, 2009; FP activity change, % at 61.4 µM; inconclusive = falling polarisation curve, or a change in total fluorescence; inactive = total fluorescence flat and polarisation flat or rising; no compound was filed as active; the % refers to the polarisation; negative = inhibition;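 further: % of control where 0% means no effect; inhibitors lower the polarisation; unlabelled MLL peptide was the positive control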
* = called active by the depositor; ? = inconclusive; . = not tested or not shown; & = joins results of further samples; [ ] = dose if it differs, or a comment.

SMILES	TRPV1 PAM	Menin-MLL FL inh	gsp antag	Sfp PPTase inh	gsp ag	ClpP mod	CtBP-E1A blk
COc1ccc(CN2CCCC(N3CCN(c4cccc(Cl)c4)CC3)C2)cc1OC (stereo not drawn)	16	0.4	10%	-2%	?	-0.5%	.
Cc1ccc(S(=O)(=O)N(C)C)cc1NC(=O)CSc1ccc2c(c1)OCCO2	10	.	-3%	.	?	1.2%	6
CN(CC(=O)Nc1ccc(Cl)c(C(F)(F)F)c1)C(=O)c1cc(-c2ccncc2)nc2ccccc12	3	.	?	.	9%[15.4 µM]	-16%	-1
CC1CCCCC1NC(=O)c1ccc2c(c1)[nH]c(=O)n2C1CCCC1 (stereo not drawn)	9	-1.6	-14%	-13%	-36%[inhibitor]	-6.9%	1
CCc1nnc2c(NCCc3ccccc3)nc3ccccc3n12	-11	3.5	5%	5%	-11%	-2.4%	.
CS(=O)(=O)N1CCN(c2ccc([N+](=O)[O-])cc2F)CC1	-27	-1.0	5%	6%	-7%	.	-5
O=C(CSc1nnc(CNc2ccccc2)o1)c1ccc2c(c1)OCCO2	-2	-1.8	-11%	-7%	?	-1.5%	-14
CCOC(=O)c1cc(-c2ccc(N)cc2)sc1N	7	-0.9	-11%	-22%	8%	0.8%	-26
Cc1ccc(S(=O)(=O)N(Cc2ccc(Cl)cc2)c2ccccc2C(=O)NCc2ccco2)cc1	2	4.7	?	27%	6%	-3.1%	-3
COC(=O)c1cc(Br)ccc1NC(=O)CCNC(=O)c1ccco1	2	-0.3	-3%	4%	-41%[inhibitor]	.	5
C[C@H](CO)N1C[C@H](C)[C@@H](CN(C)C(=O)c2cc(-c3ccccc3)on2)OCc2cn(nn2)CCCC1=O	.	.	.	.	1%	0.2%	1
COc1ccc(/C=N/n2c(-c3n[nH]c4c3CCC4)n[nH]c2=S)cc1	3	-0.5	-19%	11%	-5%[15.4 µM]	-0.1%	8
Cc1c(NC(=O)CSc2nc3ccccc3s2)c(=O)n(-c2ccccc2)n1C	13	2.1	-1%	-22%	-39%[inhibitor]	1.3%	5
CCOc1ccc2ccccc2c1C1NC(=O)NC(C)=C1C(=O)OCCOC (stereo not drawn)	7	1.7	-3%	12%	2%[15.4 µM]	-0.3%	0
CCC(=O)Nc1nc2c(OC)ccc(OC)c2s1	25	-2.6	7%	3%	-46%[inhibitor]	-2.7%	-6
Cc1cccc(C(=O)OC(C)CN2CCN(C)CC2)c1 (stereo not drawn)	4	-3.6	1%	18%	26%[15.4 µM]	-2.6%	-2
CC1=NCCN1S(=O)(=O)c1ccc(Br)c(C)c1	6	4.2	?	-2%	-27%	0.4%	6
O=S1(=O)CCOC[C@H](CC2CCCCC2)N1Cc1ccccc1	-4	3.6	3%	8%	31%	1.9%&-1.2%	5
CC(C)c1ccccc1NS(=O)(=O)c1cccs1	4	-1.1	6%	5%	0%	.	3
COc1ccc(-c2cccc3c2NC(=O)C3=O)cc1OC	.	.	7%	.	29%	27%	4

SMILES	TRPV1 PAM	Menin-MLL FL inh	gsp antag	Sfp PPTase inh	gsp ag	ClpP mod	CtBP-E1A blk
O=C(Cc1c(Cl)cccc1Cl)N/N=C/c1cccnc1	4	.	-10%	13%	-13%	-2.4%	2
CCCc1cc(NCCN(C)C)n2c(nc3ccccc32)c1C#N	-3	5.4	-11%	16%	29%	4.6%	.
CC(NS(C)(=O)=O)C(c1cccs1)N1CCN(c2ccccc2)CC1 (stereo not drawn)	26	3.7	-9%	3%	16%	-0.7%	-4
O=C(c1ccco1)N1CCN(C(c2ccc(Cl)cc2)c2nnnn2Cc2ccccc2)CC1 (stereo not drawn)	?	-2.7	-18%	-23%	-30%[inhibitor]	-0.5%	-4
Cc1ccc(NC(=O)CSc2ncccc2C(=O)Oc2cccc([N+](=O)[O-])c2)cc1Cl	3	3.6	6%	?	4%	3.5%	-2
Cc1ccc(Nc2nc3nonc3[nH]c2=O)cc1	13	0.7	?	16%	2%	1.7%	0
O=C(O)CC(Cc1ccc(Br)cc1)C(=O)Nc1ccccc1 (stereo not drawn)	-34	-0.5	-10%	30%[activator]	27%	1.7%	.
COCCCn1c(=O)c2ccccc2n(Cc2ccc(C)cc2)c1=O	-3	-1.7	5%	2%	-14%	.	4
O=c1[nH]c2c(c(=O)n1-c1ccccc1)CCO2	.	.	6%	.	0%	-0.6%	-11
Nc1cc2c(cc1C(=O)c1ccccc1F)OCCO2	-2	0.0	11%	12%	-78%[inhibitor]	-2.0%	-13
Cc1ccc(OCc2cc(C(=O)N(C)CCc3nc4ccccc4[nH]3)no2)cc1C	9	1.1	35µM*	10%	2%	-1.9%	.
Cc1ccc2nc(/C(C#N)=C/c3cn[nH]c3-c3ccc(F)cc3)[nH]c2c1	6	1.3	-24%	13%	-33%[inhibitor]	-13%	-3
O=C(NC1CC1)c1cccc(NC(=O)c2cn3ccccc3n2)c1	18	.	-5%	.	-22%	-6.3%	6
COc1ccc(-c2oc3ccc(-c4cc(OC)c(OC)c(OC)c4)cc3c2C#Cc2ccsc2)cc1	-10	-1.7	12%	-1%	8%	3.8%	3
COc1ccc(C(=O)NN2C(=O)C3C4C=CC(O4)C3C2=O)cc1 (stereo not drawn)	?	-1.2	4%	22µM*	19%	-1.4%	-1
CN1CCc2c(sc3nc(NN)n(-c4ccc(Cl)cc4)c(=O)c23)C1	-14	7.8	-10%	-18%	-59%	4.7%	.
N#Cc1ccc(N[C@@H]2CCN3C(=O)c4ccccc4[C@@H]3C[C@H]2O)cc1	.	.	9%	.	.	-3.7%	-10
CC12CCC(C(=O)Nc3cc(F)ccc3F)(CC1=O)C2(C)C (stereo not drawn)	?	5.8	12%	17%	-13%[15.4 µM]	1.6%	4
C[C@@H]1CN([C@@H](C)CO)C(=O)CCCn2nncc2CO[C@@H]1CN(C)S(=O)(=O)c1ccc(-n2cccn2)cc1	.	.	.	.	-78%[inhibitor]	0.1%	1
Nc1nc(SCc2ccc3c(c2)OCO3)n[nH]1	23	-0.8	4%	11%	-53%[inhibitor]	-0.8%	-2

4 structures already listed, ordered by SMILES length, descending:
SMILES	TRPV1 PAM	Menin-MLL FL inh	gsp antag	Sfp PPTase inh	gsp ag	ClpP mod	CtBP-E1A blk
C[C@@H]1CN([C@@H](C)CO)C(=O)CCCn2nncc2CO[C@@H]1CN(C)S(=O)(=O)c1ccc(-n2cccn2)cc1	.	.	.	.	-78%[inhibitor]	0.1%	1
Cc1ccc2nc(/C(C#N)=C/c3cn[nH]c3-c3ccc(F)cc3)[nH]c2c1	6	1.3	-24%	13%	-33%[inhibitor]	-13%	-3
COc1ccc(C(=O)NN2C(=O)C3C4C=CC(O4)C3C2=O)cc1 (stereo not drawn)	?	-1.2	4%	22µM*	19%	-1.4%	-1
Cc1ccc(Nc2nc3nonc3[nH]c2=O)cc1	13	0.7	?	16%	2%	1.7%	0

Later entries:
SMILES	TRPV1 PAM	Menin-MLL FL inh	gsp antag	Sfp PPTase inh	gsp ag	ClpP mod	CtBP-E1A blk
COc1ccc(CCNC(=O)COC(=O)c2ccc(N3CCCC3=O)cc2)cc1	-6	2.1	10%	12%	-23%	.	0
C=CCNC(=S)N/N=C/c1ccc(-c2ccc(Br)cc2)o1	-5	0.9	-7%	5%	-5%	?	-8
CN(C)/C=N/S(=O)(=O)c1cccn1-c1ncc(C(F)(F)F)cc1Cl	7	-0.6	5%	21%	38%	.	5
Cc1cc2nc(CS(=O)(=O)c3ccccc3)cc(=O)n2[nH]1	-4	-4.8	3%	?	16%[15.4 µM]	.	.
Cc1c(NS(=O)(=O)c2cccc(C(=O)NCc3cccc(Cl)c3)c2)c(=O)n(-c2ccccc2)n1C	.	.	-6%	.	-2%	-0.6%	4
O=C(NCCCC1CCCC1)C1CCC(=O)N(Cc2cccc(C(F)(F)F)c2)C1 (stereo not drawn)	0	.	-4%	-1%	?	-3.8%	0
COc1cc2c(cc1OC)/C(=C/C(=O)c1ccc([N+](=O)[O-])c(C)c1)NCC2	20	?	6%	-8%	-16%	-14%	.
COCCn1c(Cc2ccccc2)nnc1SCc1nc2ccccc2c(=O)[nH]1	8	4.0	-22%	1%	?	-24%	8
O=C(CCC(=O)NNc1nc2ccccc2c2nc(-c3ccccc3)nn12)NCCCN1CCCC1=O	28	1.2	-2%	10%	-15%	.	-7
CCOC(=O)C1(Cc2cccc(F)c2)CCN(C(=O)C2CCC2)CC1	-12	-3.5	-1%	10%	-39%[inhibitor]	2.2%	4
Cc1ccc(C(=O)NCc2ccco2)cc1S(=O)(=O)N1CCOCC1	2	4.5	-7%	4%	-14%	2.6%	-2
CCN1CCN(c2nc3c(c(=O)n(C)c(=O)n3C)n2CCSc2nccc(C)n2)CC1	6	1.7	-2%	16%	3%	-0.5%	3
Cc1cc(Nc2ccccc2)nc(N2CCN(C(=O)c3ccc4c(c3)OCO4)CC2)n1	5	.	-6%	.	-3%	-9.0%	-24
COC(=O)c1c(NC(=O)c2ccc(S(=O)(=O)N3CC(C)OC(C)C3)cc2)sc2c1CCN(C)C2 (stereo not drawn)	.	.	.	.	-352%[inhibitor]	-4.8%	1
O=C(O)CCn1[nH]c(=O)ccc1=O	1	?	12%	3%	-1%	-0.9%	6
CCCN1CCN(C(=O)CCc2nnc3ccc(N4CCN(c5cccc(OC)c5)CC4)nn23)CC1	13	5.3	-1%	1%	?	-0.5%	-16
